# From PubChem BioAssay
# YopH inh – YopH (Yersinia) phosphatase inhibition. inhibition, %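 (about 10 µM by stock and volumes)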. AID 898. fluorescence Ex485/Em525. hit rate 0.16% among 140,000;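 active means inhibition of 50% or more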;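 further: controls were vehicle for no effect and minimum signal wells for full effect; inactives centre near -20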
# Arbovirus anti – arbovirus infection inhibition. hit rate 0.37% among 200,000. AID 1251. inhibition, % at 10 µM. arbovirus infection cell-based antiviral screen;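 active means inhibition from about 30%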;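 further: bluetongue infection of BSR cells; cell survival read as ATP light after 72 h; 0% = infected wells without compound and 100% = uninfected wells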
# Mtb betalactam – beta-lactam sensitization of Mtb H37Rv | M. tuberculosis H37Rv growth with meropenem, percent inhibition; hits of this screen are not shown here | inhibition, % at 25 µM | hit rate 0.27% among 330,000 | AID 434955;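 active means about 74% or more and at least 40 points above the plate without the antibiotic, then above 30% in a dose series; inconclusive means first-round hits that could not be retested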;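 further: growth measured after seven days incubation then overnight dye step; 0% = bacteria only wells and 100% = bacteria with antibiotic; twin plates without the antibiotic show which effects depend on it; some results filed as inactive read as strong as hits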
# RecA intein inh – Mtb RecA intein splicing inhibition; cell-free RecA intein splicing, fluorescence; inhibition, %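 (about 9 µM by stock and volumes)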; hit rate 0.75% among 290,000; AID 2221; in the data active means inhibition above about 30%; inconclusive means no clear call, values can overlap the other calls;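 further: 0% = vehicle wells and 100% = reference inhibitor control wells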
# Target sequence (P9WHJ3 whole entry, looked up): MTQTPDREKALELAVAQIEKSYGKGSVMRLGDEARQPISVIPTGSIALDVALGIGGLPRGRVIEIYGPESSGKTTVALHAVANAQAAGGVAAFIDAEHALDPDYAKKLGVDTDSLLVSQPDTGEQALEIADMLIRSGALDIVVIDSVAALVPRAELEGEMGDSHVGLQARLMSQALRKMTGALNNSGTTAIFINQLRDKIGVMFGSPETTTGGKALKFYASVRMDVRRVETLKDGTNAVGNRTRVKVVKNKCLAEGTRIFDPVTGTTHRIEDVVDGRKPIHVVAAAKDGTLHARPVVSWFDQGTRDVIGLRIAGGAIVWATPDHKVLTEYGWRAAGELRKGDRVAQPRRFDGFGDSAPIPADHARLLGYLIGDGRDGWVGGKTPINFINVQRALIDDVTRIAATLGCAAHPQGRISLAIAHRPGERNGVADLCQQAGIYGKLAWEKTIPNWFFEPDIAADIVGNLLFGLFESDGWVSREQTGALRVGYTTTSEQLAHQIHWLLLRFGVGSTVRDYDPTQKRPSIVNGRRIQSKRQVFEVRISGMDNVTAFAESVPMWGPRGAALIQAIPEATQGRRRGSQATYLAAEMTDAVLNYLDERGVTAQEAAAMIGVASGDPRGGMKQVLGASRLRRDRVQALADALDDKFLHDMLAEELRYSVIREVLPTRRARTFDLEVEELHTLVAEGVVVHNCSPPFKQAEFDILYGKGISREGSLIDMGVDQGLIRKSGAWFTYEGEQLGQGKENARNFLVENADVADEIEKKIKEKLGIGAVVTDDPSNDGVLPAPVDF
# Mtb growth – M. tuberculosis H37Rv growth inhibitors, H37Rv strain (AID 1626); M. tuberculosis H37Rv growth inhibition; higher % means a stronger effect; inhibition, % at 10 µM, or IC50 in µM where a hit was titrated; hit rate 0.95% among 220,000;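 active means confirmed in a dose series; inconclusive means inhibition above 80% but not taken into the dose series; inactive means below 80% or under 30% at every dose of the series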;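 further: bacteria incubated seven days before Alamar blue readout; 0% = bacteria only wells and 100% = bacteria with antibiotic wells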
# Arbovirus anti repeat – second read-out of Arbovirus anti, no call of its own (marks repeat the call); inhibition, %; measured here: 10K subset replicate screen; many hits read low in the repeat;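 first of two repeat runs on a subset; 0% = infected and 100% = uninfected wells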
# An asterisk follows results filed as active; u = inconclusive; x = no result given; & = joins results of further samples.
SMILES,YopH inh,Arbovirus anti,Mtb betalactam,RecA intein inh,Mtb growth,others
C=CCn1c(-c2ccccc2[N+](=O)[O-])n[nH]c1=S,x,2.1,-1.0,-2.3,0.2%,
COc1ccccc1N1CCN(Cc2cc(=O)c(OCC#N)co2)CC1,x,x,-0.5,-5.2,x,
CC1CCCN(S(=O)(=O)c2cc(Cl)ccc2Cl)C1 (centres undefined),10.6,-3.6,0.0,-1.5,2.0%,
COc1ccc(-n2c(SC(CN3CCCCC3)CN3CCCC3=O)nc3ccccc3c2=O)cc1 (centres undefined),-29.7,2.3,1.8,5.2,10.6%,
Cc1ccc(S(=O)(=O)N2CCN(C(=O)c3cccs3)CC2)cc1,x,-2.1,-1.7,1.8,1.8%,
CCOc1ccc(NC(=O)CN2CCN(CC(=O)Nc3ccc(F)c(F)c3)CC2)cc1,-27.9,-10.0,40.6,-0.4,10.7%,
CCN(C(=O)CCNC(=O)Cn1cnc2ccccc2c1=O)c1ccccc1F,x,x,5.0,1.4,x,
CCOc1ccc(S(=O)(=O)NCCC(=O)N(C)Cc2ccc(C)o2)cc1,x,x,-2.9,2.4,x,
CC(C)(C)OC(=O)NCCCC[C@H](NC(=O)c1[nH]cnc1C(=O)N[C@@H](Cc1ccccc1)C(=O)OC(C)(C)C)C(=O)OC(C)(C)C,x,x,-7.9,0.7,21.6%,
CC(Sc1nnc(-c2ccc(OC(F)F)cc2)o1)C(=O)NCC1CCCO1 (centres undefined),x,x,-21.5,-0.5,x,
O=C(Cn1cc2c(n1)CCCCC2)NCc1cccs1,x,-1.5,2.2,-0.4,5.4%,Arbovirus anti repeat=-1.1
O=C(Nc1ccccc1C(=O)O)c1cc(S(=O)(=O)N2CCCCC2)c(Cl)cc1Cl,x,x,-4.0,8.0,x,
O=c1[nH]c2ccc(NC(=S)Nc3ccccc3)cc2[nH]1,x,0.1,-6.1,-1.5,4.5%,
Cc1ccc(-c2cc(N)n(-c3ccccc3)n2)cc1,-30.3,6.1,-6.9,1.0,-1.8%,
CC1=C(C#N)C(c2ccoc2)C(C(=O)OCc2ccccc2)=C(N)S1 (centres undefined),-37.0,3.1,-4.0,2.2,-3.7%,
CCOC(=O)c1sc(=S)n(CC)c1NC(=O)CC,-14.3,9.9,u,0.9,-6.5%,
CCCCOC(=O)c1ccc(NC(=O)CSc2nncn2C)cc1,-46.9,-1.3,70.6,-1.5,53.2%,
COc1cccc2c1Oc1cc([N+](=O)[O-])cc(N(C)C(C)=O)c1C=C2,x,x,-9.2,1.8,x,
COc1ccc(C(=O)c2c[nH]c(C(=O)NCCCn3ccnc3)c2)cc1,x,8.5,-3.6,2.1,6.3%,
COc1ccc(N(CC(=O)NCc2ccc(F)cc2)S(=O)(=O)c2c(C)n[nH]c2C)cc1,x,x,-2.0,-2.6,x,
O=C(CSCc1ccc(Cl)cc1)N/N=C/c1c(Cl)cccc1Cl,-49.6,-3.7,-6.3,2.7,18.5%,
CCC(O)(c1ccccc1)C(CN1CCOCC1)c1ccccc1 (centres undefined),x,x,5.3,-1.3,x,
Oc1ccc(-c2nccc(-c3cccs3)n2)cc1,-47.3,13.0,73.9,1.8,-3.2%,
Clc1ccc(CSc2nnc(NC3=NCCCCC3)s2)cc1,-15.7,1.8,73.0,9.0,2.0%,
Cc1cc(C(=O)OCC(=O)N2CC(C)OC(C)C2)c2ccccc2n1 (centres undefined),x,x,-19.0,-1.0,x,
O=C(Nc1ccc(S(=O)(=O)N2CCCC2)cc1)c1cc(F)c(F)cc1Cl,x,x,-15.7,2.1,x,
CCOC(=O)c1csc(NC(=O)c2ccc3c(c2)OCCO3)n1,x,x,u,0.6,x,
O=C1CS/C(=C\[N+](=O)[O-])N1c1ccccc1,-36.9,0.3,5.8,12.4,-6.7%,
O=C1CN(C(=O)COC(=O)c2cccnc2Cl)c2ccccc2N1,x,-2.9,-0.5,3.0,-3.7%,
CCOC(=O)c1c(NC(=O)CNCCO)sc(C)c1C,-53.0,-5.1,97.3,0.3,3.4%,
O=c1c2ccccc2nc(SCc2cc(F)cc3c2OCOC3)n1Cc1ccco1,-2.4,-2.4,-14.9,0.6,-10.0%,
CCOC(=O)N1CCN(S(=O)(=O)c2ccc3c(c2)CC(C)N3C(=O)C2CC2)CC1 (centres undefined),x,x,-2.5,-0.7,x,
COc1cccc(C(=O)NC(C)C(c2cccs2)N2CCOCC2)c1 (centres undefined),-31.3,5.4,2.2,-0.2,-8.3%,
COc1ccc(C2CC3CC(c4ccccc4)N2O3)cc1 (centres undefined),-53.4,6.0,-4.1,2.3,-6.0%,Arbovirus anti repeat=6.9
CN(C(=O)c1ccc(S(=O)(=O)N(C)C)cc1)c1ccc2ccccc2c1,x,x,-8.1,0.8,x,
Cc1cc(C)nc(SCC(=O)NC2CCCCC2C)n1 (centres undefined),x,x,-6.7,-2.6,x,
CSc1nnc2c3cc(F)ccc3n(Cc3ccccc3)c2n1,x,x,6.0,-2.0,-7.8%,
COc1ccccc1NC(=O)N1CCN(c2ccccn2)CC1,x,-2.0,-6.0,-0.3,2.9%,Arbovirus anti repeat=-1.1
O=C(O)C1CCCN(S(=O)(=O)c2ccccc2)C1 (centres undefined),x,1.4,-12.2,-0.6,1.3%,
CC(=O)c1sc(NC(=O)CCN2C(=O)c3ccccc3C2=O)nc1C,x,x,-9.6,1.7,x,
CC(=O)c1cccc(NC(=O)c2ccc([N+](=O)[O-])o2)c1,x,x,100.1,-1.9,x,
O=C(NC(=S)NCCc1ccccc1)c1ccccc1F,x,x,18.4,3.7,x,
CCNC(=O)N1CCC(c2nc3ccccc3s2)CC1,x,x,0.2,0.7,x,
O=C(O)/C=C/C(=O)Nc1ccc(Cl)c(C(=O)O)c1,x,x,1.7,1.5,-5.9%,
CN(c1ccc(C(=O)N2CCCCC2)cc1)S(=O)(=O)c1cccs1,x,x,1.7,-0.8,x,
COc1cc(NC(=O)c2cccs2)ccc1NC(=O)c1ccccc1Cl,x,-23.7,-1.4,12.8,38.1%,
CCOC(=O)c1sc(C)c(C(=O)NCCCN2CCOCC2)c1N,-53.9,8.9,0.6,0.8,1.0%,
Cc1nn(Cc2ccccc2)c(Cl)c1C(=O)OC(C)C#N (centres undefined),x,-10.9,-8.2,0.6,2.3%,
CCOC(=O)CNC(=O)Cn1cnc2c(nnn2-c2ccc(F)cc2)c1=O,-40.7,3.3,-0.9,x,-2.1%,
Cc1cccc(C)c1NC1=NC(=S)N(c2ccc(C(=O)O)cc2)C12CCCCC2,x,4.0,-4.0,-0.5,1.6%,
COC(=O)CCn1nnc(-c2ccc(C(C)C)cc2)n1,-39.7,10.2,99.8,2.4,u,
COc1ccc(OC)c(CCNC(=O)c2ccc3c(c2)N(Cc2ccc(F)cc2)CCS3)c1,x,x,-9.9,1.9,x,
COc1cccc(-c2noc(CCC(=O)NC3CCCCC3)n2)c1,6.6,-1.0,-0.1,4.9,-11.3%,
O=C(COC(=O)CCc1nc2ccccc2c(=O)[nH]1)NC(=O)NC1CCCC1,-42.9,5.8,8.0,-1.5,-7.6%,
CCCc1ccc(OCc2ccc(C(=O)NCc3cccnc3)o2)c(OC)c1,x,5.6,-1.2,4.1,-9.8%,
CN(CC(=O)NCc1ccccn1)S(=O)(=O)c1cc(Cl)ccc1Cl,x,x,-2.3,-0.4,x,
Clc1ccc(SCCn2cncn2)cc1,3.2,7.4,-6.0,-0.3,3.0%,
O=C(COC(=O)c1ccc(Cl)nc1)NCCC1=CCCCC1,x,-1.1,-3.0,3.0,8.1%,
COCC(C)n1c(C)cc(C(=O)CN2C(=O)NC3(CCCCC3C)C2=O)c1C (centres undefined),-28.7,6.5,-7.0,0.0,3.6%,
CCc1ccc(NC(=O)CCc2nc3cccnc3n2Cc2ccc(OC)cc2)cc1,-6.6,-26.1,6.4,-1.5,9.4%,

# An excerpt from above in order of SMILES length, smallest number first:
SMILES,YopH inh,Arbovirus anti,Mtb betalactam,RecA intein inh,Mtb growth,others
CC(=O)c1cccc(NC(=O)c2ccc([N+](=O)[O-])o2)c1,x,x,100.1,-1.9,x,
CCc1ccc(NC(=O)CCc2nc3cccnc3n2Cc2ccc(OC)cc2)cc1,-6.6,-26.1,6.4,-1.5,9.4%,
O=C(COC(=O)CCc1nc2ccccc2c(=O)[nH]1)NC(=O)NC1CCCC1,-42.9,5.8,8.0,-1.5,-7.6%,

# Next part
SMILES,YopH inh,Arbovirus anti,Mtb betalactam,RecA intein inh,Mtb growth,others
COc1ccccc1NC(=O)C1CCN(C(=O)C2CC(=O)N(c3ccc(C)cc3)C2)CC1 (centres undefined),x,x,-3.4,1.2,x,
O=C1CN(C(=O)c2ccccn2)c2ccccc2N1,-34.6,-1.8,-16.7,0.2,1.3%,
Cn1cccc1Cc1nnc(SCC(=O)Nc2ccc(F)cc2)n1CCc1ccccc1,-16.9,13.3,1.3,3.8,-3.1%,
CN(C)c1ccc(C(=O)NCc2ccc3c(c2)OCO3)cc1,x,x,-5.4,1.8,x,
Cc1sc2cc(-c3cccc([N+](=O)[O-])c3)c(-c3cccc([N+](=O)[O-])c3)c[n+]2c1C,-8.5,7.1,1.7,-1.0,-2.6%,
CCCCOc1cc(C(=O)NCCN(CC)CC)c2ccccc2n1,-11.3&-4.4,-36.3&-29.6,0.2&-1.5,0.1&-1.0,-2.1%&3.9%,
Cc1cc(-c2cccc([N+](=O)[O-])c2)nc2ccccc12,-29.3,6.5,3.7,1.2,11.6%,
CCc1nc(SCC(=O)c2ccccc2)c2ccccc2n1,x,-2.1,-5.9,19.5,-5.2%,
CCOC(=O)c1sc(NCc2ccco2)c(-c2nc3ccccc3s2)c1N,-8.8,-26.2,4.2,1.5,3.2%,
COC(=O)c1ccccc1NC(=O)Nc1ccc(C(=O)N2CCCC2)cc1,-42.1,3.9,6.5,-5.4,-6.0%,
CCN(CC)CC(C)CNC(=O)C1(O)c2ccccc2NC(=O)N1c1ccc(Cl)c(Cl)c1 (centres undefined),x,x,-5.6,0.3,x,
Cc1ccc(OCC(=O)N(Cc2ccccc2)C2CCS(=O)(=O)C2)c([N+](=O)[O-])n1 (centres undefined),-20.2,5.2,4.5,-4.8,-12.5%,
COc1ccc(Nc2nc(NCCCN3CCOCC3)nc(N)c2[N+](=O)[O-])cc1,x,x,-1.9,x,-5.6%,
OCCN1CCN(c2cc(C(F)(F)F)nc3c(F)cccc23)CC1,x,x,-7.1,-0.2,0.8%,
CC(=O)c1ccc(OCc2cc(C(=O)N(C)Cc3ccon3)no2)cc1,x,x,8.2,1.0,x,
O=C(NNC(=O)C1CCCN(c2ncccn2)C1)c1ccncc1 (centres undefined),x,1.6,-2.5,-0.9,-4.0%,

# Reprinted at random: seven compounds from above, in no set order.
SMILES,YopH inh,Arbovirus anti,Mtb betalactam,RecA intein inh,Mtb growth,others
CC(=O)c1sc(NC(=O)CCN2C(=O)c3ccccc3C2=O)nc1C,x,x,-9.6,1.7,x,
COc1cccc2c1Oc1cc([N+](=O)[O-])cc(N(C)C(C)=O)c1C=C2,x,x,-9.2,1.8,x,
CC1CCCN(S(=O)(=O)c2cc(Cl)ccc2Cl)C1 (centres undefined),10.6,-3.6,0.0,-1.5,2.0%,
COc1ccc(-n2c(SC(CN3CCCCC3)CN3CCCC3=O)nc3ccccc3c2=O)cc1 (centres undefined),-29.7,2.3,1.8,5.2,10.6%,
COc1ccc(C2CC3CC(c4ccccc4)N2O3)cc1 (centres undefined),-53.4,6.0,-4.1,2.3,-6.0%,Arbovirus anti repeat=6.9
CC(Sc1nnc(-c2ccc(OC(F)F)cc2)o1)C(=O)NCC1CCCO1 (centres undefined),x,x,-21.5,-0.5,x,
Clc1ccc(SCCn2cncn2)cc1,3.2,7.4,-6.0,-0.3,3.0%,

# An excerpt (hit frequency here may not be typical).
